# Screens as filed in PubChem BioAssay.
# PKD1 kinase inh: inhibitors of human PKD1 kinase, biochemical, fluorescence polarization | Serine/threonine-protein kinase D1 (Homo sapiens), Q15139 | PKD1 kinase fluorescence polarization assay | inhibition, %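 (about 10 µM by stock and volumes)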 | actives 0.056% (n = 200,000);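 active = inhibition of 50% or more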;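 note: controls were vehicle for no effect and a reference inhibitor for full effect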
# INS promoter inh: inhibitors of insulin promoter-driven GFP, primary screen, imaging, TRM-6 cells (human fetal islet line), eGFP reporter, cell count; reporter expression induced with tamoxifen; inhibition, % at 2 µM; actives 0.9% (n = 130,000);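 active = inhibition above the mean plus 3 SD, with well images judged a real hit on visual review, cut at about 60% in these data, passing the limit was not always enough; inconclusive = inhibition over the cutoff but images rejected on review; inactive = inhibition not above the cutoff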
# RGS16-Gao: modulators of RGS16 binding to Galphao, primary screen, biochemical, human proteins, multiplexed bead flow cytometry; Regulator of G-protein signaling 16 (Homo sapiens) + Guanine nucleotide-binding protein …; bead-based flow cytometry RGS16-Galphao binding, fluorescence; actives lie on both sides; binding response (% of control), % at 10 µM; actives 0.38% (n = 220,000); AID 1441, 2008;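 active = below 25% or above 175%, edge rows of some plates excepted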;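 note: Galphao activated by GDP with aluminum fluoride before binding; 100% = wells without compound and 0% = beads without RGS; some results beyond the cut were filed as inactive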
# Target sequence (O15492 whole entry, looked up): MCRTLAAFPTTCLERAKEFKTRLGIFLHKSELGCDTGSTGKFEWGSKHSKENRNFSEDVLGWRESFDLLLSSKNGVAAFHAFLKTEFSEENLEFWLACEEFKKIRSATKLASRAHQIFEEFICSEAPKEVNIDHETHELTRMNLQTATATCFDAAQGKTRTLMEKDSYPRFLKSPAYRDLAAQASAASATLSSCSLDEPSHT
# Target sequence (P09471 whole entry, looked up): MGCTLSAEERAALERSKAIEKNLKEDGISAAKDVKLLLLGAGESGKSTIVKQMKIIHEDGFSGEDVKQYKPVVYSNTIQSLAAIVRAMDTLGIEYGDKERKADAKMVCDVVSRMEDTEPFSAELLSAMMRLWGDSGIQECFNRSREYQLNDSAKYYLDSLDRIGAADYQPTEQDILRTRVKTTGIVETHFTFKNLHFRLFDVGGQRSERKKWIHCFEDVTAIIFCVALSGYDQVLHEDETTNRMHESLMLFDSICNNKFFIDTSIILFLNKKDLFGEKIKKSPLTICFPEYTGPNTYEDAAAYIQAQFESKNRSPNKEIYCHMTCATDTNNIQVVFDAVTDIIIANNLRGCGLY
# HSV replic up: enhancers of HSV replication in host cells, fold increase, host cell viability; AID 1956, 2009; actives 0.005% (n = 220,000); HSV replication augmentation in cells; maximum fold increase;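 active = peak rise of 1.5-fold or more in the series; inconclusive = self-fluorescent or not available for retest; tested in PC3 cells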;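 note: first round at 10 µM; read as green reporter fluorescence; hits show the peak of a series up to 25 µM; 1 = signal of infected wells without compound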
# GALR2 agonist: GALR2 receptor agonists, primary screen, cell-based. GALR2-expressing cells, agonist activation read-out. activation, %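 (tested at 5 µM)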. actives 0.48% (n = 140,000). AID 803, 2007;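 active = above mean plus 3 SD of all compounds, about 5% in these data, not always enough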;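 note: 0% = vehicle buffer wells and 100% = reference agonist at full effect; tested in CHO reporter cells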
# Target sequence (O43603 whole entry, looked up): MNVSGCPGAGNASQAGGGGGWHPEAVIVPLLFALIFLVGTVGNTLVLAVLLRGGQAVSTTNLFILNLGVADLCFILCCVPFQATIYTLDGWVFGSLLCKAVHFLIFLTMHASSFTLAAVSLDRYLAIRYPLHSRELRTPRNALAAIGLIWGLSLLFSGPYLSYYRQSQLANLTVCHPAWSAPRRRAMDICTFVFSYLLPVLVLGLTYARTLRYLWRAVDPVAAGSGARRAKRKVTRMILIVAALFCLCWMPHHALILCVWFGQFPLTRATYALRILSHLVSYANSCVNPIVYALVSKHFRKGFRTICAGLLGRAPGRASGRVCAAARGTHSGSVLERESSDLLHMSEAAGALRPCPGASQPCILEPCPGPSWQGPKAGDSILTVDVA
# INS promoter inh cell count: recorded beside INS promoter inh, whose call it bears; normalized cell count, %; measured here: cell count, toxicity; reference of the scale not given here;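 cells exposed to compound for 48 h; stained nuclei by imaging scaled within each plate; lower means fewer cells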
# HSV replic up primary fold: further read-out of HSV replic up, marked with its call; fold increase; compound at 10 µM; measured here: primary screen fold increase 10 uM; tested in PC3 cells;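 GFP signal in the first replicate; 1 = infected wells without compound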
# * = called active by the depositor; i = inactive; u = inconclusive; x = not tested or not shown.
SMILES,PKD1 kinase inh,INS promoter inh,INS promoter inh cell count,RGS16-Gao,HSV replic up,HSV replic up primary fold,GALR2 agonist
CCOC(=O)Cc1csc(NC(=O)Cc2ccc([N+](=O)[O-])cc2)n1,-10,-41,89,76,i,0.97,-1.1
c1ccc(OCc2nc3ccccc3[nH]2)cc1,-9,-350,44,104,i,1,-1.0
CCOC(=O)C1CCCN(C(=O)c2cn(CC)c(=O)c3cc(OC)c(OC)cc23)C1 (centres undefined),-1,x,x,97,i,0.91,-2.8
Cc1ccc(-c2nc3ccccc3[nH]2)cc1NC(=S)NC(=O)c1ccccc1Br,-10,-3,90,104,i,0.84,-2.0
COc1cc(C2C(C(=O)Nc3ccccc3OC)=C(C)Nc3ncnn32)ccc1O (centres undefined),-8,x,x,110,i,0.84,-1.5
Cc1ccsc1C1NC(=O)c2c(sc3c2CCN(C)C3)N1 (centres undefined),-6,x,x,100,u,x,-0.4
NC(=O)C1CCN(S(=O)(=O)c2ccc3c(c2)OCCO3)CC1,x,x,x,104,i,0.88,x
COc1ccc(N(C(=O)CCl)C(C)(C(=O)Nc2c(C)cccc2C)c2ccccn2)cc1 (centres undefined),-9,x,x,105,i,1.1,-1.8
COc1ccc(C(=O)NCc2cccs2)cc1S(=O)(=O)N1CCOCC1,0,-14,146,108,i,0.88,x
COc1ccc(OC)c(NC(=O)c2cnc3n(c2=O)CCS3)c1,-9,x,x,98,i,0.97,-0.5
O=S(=O)(Cc1cc(Sc2ccc(Cl)cc2)nc(-c2ccccc2)n1)c1ccccc1,-3,25,115,106,i,0.87,0.2
Cc1cccc(NC(=O)c2ccc(Cn3cc(C(F)(F)F)ccc3=O)cc2)c1,-1,-29,78,128,i,0.72,-2.3
O=C(O)C1CCC(Cn2c(SCc3cc(=O)n4cc(Br)ccc4n3)nc3ccsc3c2=O)CC1 (centres undefined),10,56,112,102,i,1.2,x
O=C(NC1CCCC1)C(c1ccc(Cl)cc1)N1CCc2ccccc21 (centres undefined),-6,x,x,99,i,1,-1.1
O=C(NCCCN1CCN(c2ccccc2F)CC1)Nc1ccc(F)cc1,-1,-79,147,101,i,0.87,1.2
COc1ccc(-c2csc(Cc3nnc4n3CCCCC4)n2)cc1OC,9,-27,87,115,i,0.9,-0.4
CCOC(=O)CC(=O)CSc1ccc2nnc(-c3ccccc3)n2n1,-1,x,x,97,i,0.94,-0.4
COc1ccc(-c2cnc3nc[nH]c(=O)c3n2)cc1,-5,19,110,x,i,1.1,-1.0
O=C(NC1CCCCC1)n1c(=O)oc2ccccc21,4,3,67,94,i,0.95,-0.3
Cc1ccc(NN=C2C(=O)OC(C)(C)OC2=O)c(C)c1,-10,-39,122,92,i,0.87,-1.9
Cc1nn(Cc2ccccc2)c(Cl)c1C(=O)OCc1nnc(-c2ccccc2)o1,-10,x,x,92,i,0.95,-1.5
OC(COCc1ccc2c(c1)OCO2)CN1CCC(Cc2ccccc2)CC1 (centres undefined),-4,x,x,88,i,0.88,x
Cc1ccc(C2C3=C(CC(C)(C)CC3=O)NC3=C2C(=O)CC(C)(C)C3)o1,3,x,x,115,i,1,-1.0
O=c1[nH]n(-c2ncnc3c2cnn3-c2ccccc2)c(=O)c2ccccc12,18,11,113,104,i,0.94,-1.3
O=S(=O)(c1ccc(Br)c2nsnc12)N1CCOCC1,-25,-178,7,105,i,0.83,-3.3
Cc1ccc(-c2nc(N)sc2-c2ccccc2)cc1C,-7,47,116,108,i,0.97,0.3
CC(C)(C)OC(=O)N1CCC[C@H]1c1nnc(SCc2ccccc2Cl)o1,11,x,x,92,i,0.95,-0.3
Cc1ccccc1C(=O)NC(CC(C)C)C(=O)Nc1cccc(S(=O)(=O)N(C)C)c1 (centres undefined),-1,-50,82,104,i,0.95,x
O=C1OC(Nc2ncccn2)c2ccccc21 (centres undefined),-4,-7,83,126,i,0.79,-1.4
CCOc1ccccc1NC(=O)Cn1[nH]c(=O)c2ccccc2c1=O,3,x,x,100,i,0.79,x
Cc1ccc(S(=O)(=O)c2cc3c(=O)n4ccccc4nc3n(CC3CCCO3)c2=N)cc1 (centres undefined),-14,3,198,x,x,x,-3.2
CSc1nc(N)nc(SCC(=O)C23CC4CC(CC(C4)C2)C3)c1C#N,-7,-76,68,98,i,0.87,-0.9
Cc1c(N=Cc2ccc(Cl)o2)c(=O)n(-c2ccccc2)n1C,-8,0,78,97,i,1.1,0.0
CCCc1nc2ccc([N+](=O)[O-])cc2[nH]1,-3,x,x,105,i,1,x
O=C(Nc1cccc(S(=O)(=O)NC2=NCCC2)c1)C1CC(=O)N(c2ccc3c(c2)OCCO3)C1 (centres undefined),-6,12,143,103,i,1,x
CN(C)S(=O)(=O)c1cccc(C(=O)OCC(=O)NCc2ccccc2)c1,3,13,81,104,i,0.7,0.0
COc1cccc(NC(=O)c2ccc(-n3cccn3)nc2)c1,2,54,65,112,i,0.87,-2.1
CCCCn1c(SCc2cccc([N+](=O)[O-])c2)nc2ccsc2c1=O,-8,-53,94,121,i,1,0.0
O=C(CN1C(=O)COc2ccc(S(=O)(=O)N3CCCC3)cc21)NCc1ccccn1,x,x,x,103,i,0.9,x
CCC(OC(C)=O)c1cc2c(cc1[N+](=O)[O-])OCCO2 (centres undefined),1,x,x,98,i,1.1,x
COc1ccc(NC(=O)C2C3C=CC4(CN(Cc5cccnc5)C(=O)C24)O3)c(OC)c1 (centres undefined),-4,0,149,98,i,0.99,-0.6
O=C(CN1C(=O)c2cccc3cccc1c23)NCc1ccccn1,-2,44,166,111,i,0.98,-1.4
COc1cc(-c2csc(CCn3nc(C)cc3C)n2)cc(OC)c1OC,9,29,96,104,i,1,x
Cc1nc(SCC(=O)NCc2ccco2)c2oc3ccccc3c2n1,-2,x,x,101,i,0.97,-2.6
CCOC(=O)c1cnc2c(Cl)cc(Cl)cc2c1NCCOCCO,-1,x,x,107,i,0.77,2.2
O=S1(=O)CC(O)C(N(CCO)C(=S)Nc2ccccc2)C1 (centres undefined),x,x,x,94,i,1.2,x
CCc1cc(SC#N)cc(C)c1NC(=O)CCl,-1,-10,80,75,i,1.1,0.1
CCOC(=O)C1=C(C)N(C)C(=S)NC1c1ccc(Cl)cc1Cl (centres undefined),2,-28,125,104,i,0.91,0.9
N#CCSc1nnc2c(Cl)cc(Cl)cn12,-6,9,115,102,i,0.9,-3.4
Fc1ccc(-n2nnnc2-c2ccccc2Cl)cc1,-1,x,x,114,i,0.97,x
Clc1ccc(-c2noc(CSc3nnc(Cc4cccs4)n3-c3ccccc3)n2)cc1,3,x,x,103,i,0.91,-0.7
COc1ccc(-c2nc(C#N)c(NCCCn3ccnc3)o2)cc1OC,-15,43,85,104,i,0.84,-2.0
CCCCN(CC)CCNC(=O)c1cn(-c2ccc(Cl)cc2)c(=O)c2ccccc12,-8,-76,80,98,i,0.82,x
COCCNS(=O)(=O)c1cc(C)c(C)cc1C,17,-29,86,101,i,1,-1.0
COc1ccc(NC(=O)CCCn2c(=O)oc3ccccc32)cc1Cl,-10,33,95,8.8*,i,1,-1.2
S=C1NCN(Cc2cccnc2)CN1Cc1ccccc1,x,x,x,98,i,0.99,x
O=C(NCCCO)c1cc([N+](=O)[O-])cc2c1C=Cc1ccccc1O2,-1,0,54,102,i,1.1,x
CCN=C1SC(CC(=O)NC2CCCCC2)C(=O)N1CC (centres undefined),-7,27,131,91,i,1,-4.2
O=C(CN(c1ccc(F)cc1)S(=O)(=O)c1ccccc1)Nc1ccccc1C(=O)O,3,x,x,102,i,0.77,x
CNC(=O)COC(=O)/C=C/c1cn(-c2ccccc2)nc1-c1ccc2c(c1)OCCO2,-5,x,x,103,i,1,x

# Later entries.
SMILES,PKD1 kinase inh,INS promoter inh,INS promoter inh cell count,RGS16-Gao,HSV replic up,HSV replic up primary fold,GALR2 agonist
COc1ccc(NC(=O)CC(c2ccc(F)cc2)c2ccc(OC)cc2)cc1 (centres undefined),4,x,x,94,i,1,0.9
Cc1cc2cc(CN3C(=O)c4ccccc4C3=O)ccc2n1C,-4,7,115,106,i,1,-0.5
Cc1cc(/C=C2/NC(=O)NC2=O)c(C)n1-c1sc2c(c1C#N)CCCC2,-2,7,96,96,i,0.96,0.2
C=CCc1cc(OC)ccc1OCCON1C(=O)CCC1=O,-5,-85,83,108,i,0.94,-3.3
CCN(CCCNC(=O)C1CCN(S(=O)(=O)c2cnc[nH]2)CC1)c1cccc(C)c1,-8,x,x,116,i,0.9,-3.2
O=c1c2[nH]c3ccc(F)cc3c2nc2n1CCS2,-1,x,x,102,i,0.82,x
Cc1ccc(OCC(=O)N2CCN(C3=NS(=O)(=O)c4ccccc43)CC2)cc1,-7,49,139,100,i,0.86,-1.8
O=C(/C(=C(\O)c1ccccc1)c1nc2ccccc2[nH]1)c1ccccc1,x,x,x,100,i,0.9,x
CCCNS(=O)(=O)c1ccc(OCC(=O)NCCC2=CCCCC2)cc1,-6,x,x,118,i,1,1.5
Cc1nn(-c2ccccc2)nc1C(=O)Oc1cc(C(F)(F)F)nn1-c1ccccc1,x,x,x,105,i,1.1,x

# Compounds from the list above that have fluorine:
SMILES,PKD1 kinase inh,INS promoter inh,INS promoter inh cell count,RGS16-Gao,HSV replic up,HSV replic up primary fold,GALR2 agonist
Cc1cccc(NC(=O)c2ccc(Cn3cc(C(F)(F)F)ccc3=O)cc2)c1,-1,-29,78,128,i,0.72,-2.3
O=C(NCCCN1CCN(c2ccccc2F)CC1)Nc1ccc(F)cc1,-1,-79,147,101,i,0.87,1.2
Fc1ccc(-n2nnnc2-c2ccccc2Cl)cc1,-1,x,x,114,i,0.97,x
O=C(CN(c1ccc(F)cc1)S(=O)(=O)c1ccccc1)Nc1ccccc1C(=O)O,3,x,x,102,i,0.77,x
COc1ccc(NC(=O)CC(c2ccc(F)cc2)c2ccc(OC)cc2)cc1 (centres undefined),4,x,x,94,i,1,0.9
O=c1c2[nH]c3ccc(F)cc3c2nc2n1CCS2,-1,x,x,102,i,0.82,x
Cc1nn(-c2ccccc2)nc1C(=O)Oc1cc(C(F)(F)F)nn1-c1ccccc1,x,x,x,105,i,1.1,x

# Part of the list above, with each value named.
Cc1nn(-c2ccccc2)nc1C(=O)Oc1cc(C(F)(F)F)nn1-c1ccccc1
  PKD1 kinase inh: x; INS promoter inh: x; INS promoter inh cell count: x; RGS16-Gao: 105; HSV replic up: i; HSV replic up primary fold: 1.1; GALR2 agonist: x

Cc1ccc(OCC(=O)N2CCN(C3=NS(=O)(=O)c4ccccc43)CC2)cc1
  PKD1 kinase inh: -7; INS promoter inh: 49; INS promoter inh cell count: 139; RGS16-Gao: 100; HSV replic up: i; HSV replic up primary fold: 0.86; GALR2 agonist: -1.8

# Rows are unselected (roughly 1.3% active in at least one column).
